# Bioassay records deposited in PubChem by National Center for Advancing Translational Sciences (NCATS).
# TRPV1 potentiator – HTS Assay for Compounds that Act as Potentiators of the Vanilloid Receptor 1 | 0.02% of 320,000 active | AID 540277, 2011 | potentiation, % at 8.33 µM | TRPV1-expressing cells, Fluo-8 calcium influx, capsaicin EC20 potentiation; host cell line not named in the record; control for the full effect not named in the record; active means potentiation above 80%; inconclusive means 30% to 80%; inactive means below 30%; also: 0% is about no effect
#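 TRPV1-expressing cells were cultured overnight at 35.5C and loaded with Fluo-8 calcium dye for 40 to 90 min at room temperature. After a 10 s baseline, compound was added and calcium influx was read kinetically for 3 min (ex 480/em 520 nm).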
# Menin MLL FP FL – qHTS Assay for Inhibitors Targeting the Menin-MLL Interaction in MLL Related Leukemias: Competition With Fluorescein Labeled MLL-derived Peptide; AID 1766, 2009; Fluorescence polarization, fluorescein-MLL peptide displacement from menin; FP activity change, % at 61.4 µM; 290,000 tested, under 10 active; inconclusive = falling polarisation curve, or a change in total fluorescence; inactive = total fluorescence flat and polarisation flat or rising; no compound was filed as active; the % refers to the polarisation; negative = inhibition;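 also: % of control where 0% means no effect; inhibitors lower the polarisation; unlabelled MLL peptide was the positive control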
# TRPML1 ag – qHTS for Agonists of the Human Mucolipin Transient Receptor Potential 1 (TRPML1); activation, % (test concentration not listed); AID 624414, 2012; TRPML1-expressing cells, Ca2+ dye fluorescence, FDSS; host cell line not named in the record; reference of the full effect not given here; Mucolipin-1 (Homo sapiens), Q9GZU1; 0.12% of 410,000 active; in the data active = activation above about 50%; inconclusive = about 30% to 50%; inactive = below about 30%; also: 0% is about no effect; the text of the record puts the active cut at 80%
# Target sequence (Q9GZU1 whole entry, looked up): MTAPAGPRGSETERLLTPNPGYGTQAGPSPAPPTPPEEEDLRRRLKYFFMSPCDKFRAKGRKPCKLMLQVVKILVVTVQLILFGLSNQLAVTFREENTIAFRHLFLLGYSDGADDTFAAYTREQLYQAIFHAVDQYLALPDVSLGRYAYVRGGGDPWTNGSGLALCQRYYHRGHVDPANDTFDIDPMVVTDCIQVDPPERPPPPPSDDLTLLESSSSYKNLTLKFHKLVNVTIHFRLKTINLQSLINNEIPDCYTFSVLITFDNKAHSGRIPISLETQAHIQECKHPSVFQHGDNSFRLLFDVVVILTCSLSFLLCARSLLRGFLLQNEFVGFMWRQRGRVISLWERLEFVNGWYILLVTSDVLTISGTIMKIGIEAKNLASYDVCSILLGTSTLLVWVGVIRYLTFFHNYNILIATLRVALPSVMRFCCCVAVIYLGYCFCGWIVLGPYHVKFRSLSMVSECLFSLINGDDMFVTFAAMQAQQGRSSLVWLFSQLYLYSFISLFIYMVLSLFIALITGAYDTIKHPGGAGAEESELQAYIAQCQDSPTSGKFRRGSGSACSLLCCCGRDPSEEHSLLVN
#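 Tetracycline-induced TRPML1-DL cells are seeded and incubated overnight before loading with a no-wash Ca2+ dye and quencher. Agonist activity is taken from the 110 s fluorescence read following compound pin-transfer on an FDSS, before EC80 54-4 challenge.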
# TRPML1 inh – qHTS for Inhibitors of the Human Mucolipin Transient Receptor Potential 1 (TRPML1); TRPML1-inducible cells, Ca2+ dye fluorescence, FDSS; hits give low values; inhibition of EC80 agonist-evoked calcium signal; activity change, negative = inhibition, % (test concentration not listed); 0.02% of 390,000 active; AID 624415, 2012; in the data active means activity change below about -50%; inconclusive means about -30% to -50%; inactive means above about -30%;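 also: stimulus is agonist 54-4 at its EC80 concentration; % is scaled to controls: 0 for no effect and ±100 for the full control effect; compound concentration not given in the record; the text of the record puts the active cut at -80%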
#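 Calcium fluorescence in TRPML1-DL cells induced overnight with Tet: a 110 s read after compound pin addition, then a 110 s antagonist read after challenge with 54-4 at 4 uM final (EC80).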
# PINK1 expr mod – A Quantitative High throughput Screen to Identify Chemical Modulators of PINK1 Expression. PINK1 immunofluorescence, high-content cytometry, 24 h. Potency, µM (series often up to 76.6 µM), for inactives: at the highest dose activation (PINK1 increase), actives largely listed as activators. 0.2% of 410,000 active; active = well fitted activation curve with a large enough effect; inconclusive = small, poorly fitted or top-dose-only effect; inactive = flat fitted curve, though single readings scatter; cell line not stated here;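 also: potency is read from the fitted curve at half-maximal effect; % of control where 0% means no effect; nearly all actives have a fitted effect of over 65% in size; a mitochondrial uncoupler was the plate control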
#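 Decision-based qHTS: stable cells, 24 h exposure to five compound concentrations, CCCP as control. Fixed cells stained for PINK1 plus nuclear, mitochondrial and cell markers, cytometer read.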
# Sfp inh – qHTS Assay for Inhibitors of Bacillus subtilis Sfp phosphopantetheinyl transferase (PPTase) | Biochemical Sfp PPTase activity, qHTS | Potency, µM, for the others: max response, negative = inhibition, hits mostly inhibitors | 3.5% of 310,000 active; active = well fitted inhibition curve with a large enough effect; inconclusive = small, poorly fitted or top-dose-only effect, or another doubt; inactive = no such curve, though single readings can be large or run the other way;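 also: the enzyme is Sfp with the accession as filed and its product quenches rhodamine fluorescence; potency is read from the fitted curve at half-maximal effect; 0% = enzyme reaction without inhibitor and -100% = no enzyme wells; top concentration of the series not given in the record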
#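 After 15 min at room temperature with compound, 15 nM Sfp received 5 uM rhodamine-CoA plus 12.5 uM BHQ-2-ybbR (50 mM Hepes pH 7.6, 10 mM MgCl2). Rate came from the fluorescence difference over 30 min, ex 525/em 598 nm.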
# ClpP mod – qHTS Assay for Activators of ClpP. 1.9% of 340,000 active. ATP-dependent Clp protease proteolytic subunit (Bacillus subtilis (strain 168)), P80244. AID 651965, 2013. purified B. subtilis ClpP, FRET peptide cleavage, 20 min. Potency, µM (titrated, usually from 57.5 µM), inactives show at the top dose activity change, negative = active; active = well fitted falling curve with a large enough effect; inconclusive = small, poorly fitted or top-dose-only effect; inactive = no such curve, though single readings can be large or run the other way; also: potency is read from the fitted curve at half-maximal effect; the source files actives as falling curves though it sought activators and does not explain the sign; nearly all actives have a fitted effect of over 65% in size; many hits overshoot -100%
# Target sequence (P80244 whole entry, looked up): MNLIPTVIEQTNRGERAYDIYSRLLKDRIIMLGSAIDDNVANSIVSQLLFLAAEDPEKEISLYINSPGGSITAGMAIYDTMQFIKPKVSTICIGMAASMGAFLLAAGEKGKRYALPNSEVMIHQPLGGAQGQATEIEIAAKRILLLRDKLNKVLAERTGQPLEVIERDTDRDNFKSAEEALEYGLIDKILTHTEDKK
#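 ClpP 10 microg/mL final, pH 8 Tris/KCl buffer with BSA, glycerol, Tween-20; compound pinned in; FRET-FV substrate; RT 20 min; Ex320/Em430; ΔFRET vs ADEP 5.8 microM, DMSO, no enzyme.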
# * marks the source's active call; other numbers are inactive results; ? = inconclusive; / = no result given; & = joins results of further samples; [ ] = another dose, or the depositor's remark. An unsorted share of the library. About 4.4% of those tested had a hit in this group.
molecule | PINK1 expr mod | ClpP mod | Menin MLL FP FL | Sfp inh | TRPML1 inh | TRPML1 ag | TRPV1 potentiator
COC(=O)c1nnn(CC(=O)NC(=O)Nc2ccccc2F)c1C(=O)OC | 0.2%&1.0% | -1.8%&-1.4% | -1.8 | 22% | 43&6 | 0.3&-0.5 | 0
O=C(CSCc1ccccc1Br)N/N=C/c1ccccc1C(=O)O | 0.6% | / | -0.4 | 20% | -6 | -1.0 | 12
Cc1nn(-c2ccccc2)c(C)c1C(=O)OCC(=O)N(C)C1CCS(=O)(=O)C1 (stereo not given) | -0.1% | 2.6% | 3.5 | -23% | -14 | 1.3 | -10
N#Cc1ccc(CSC2=NCCN2)cc1 | 6.9% | / | -1.0 | 12% | -7 | 0.1 | -8
Cc1cccc(NC(=O)c2ccccc2C(=O)Nc2cccc(C)c2)c1 | 2.3% | 168% | / | / | -4 | -0.5 | /
COc1ccc(CC(=O)OCC(=O)NCc2ccc3c(c2)OCO3)cc1OC | -0.2% | 0.3% | / | / | 2 | -0.4 | /
COc1cccc(CNC(=O)CN2C(=O)COc3ccc(S(=O)(=O)N4CCOCC4)cc32)c1 | -1.0%&-0.6% | -0.5%&-0.2% | / | 1% | -14&7 | 0.2&3.8 | 3
COc1ccc(N2C(=O)CCC(C(=O)N3CCCCC3)C2c2ccc(OC)c(OC)c2)cc1 (stereo not given) | -1.6% | -1.2% | -0.6 | 20% | -2 | -0.2 | 13
CCO[C@@H]1OC(C(=O)NC2CC2)=C[C@H](C2CC2)[C@H]1CCCO | 1.0% | 0.3% | -1.0 | 21% | -13 | -0.1 | ?
CCN1CCN(S(=O)(=O)Cc2ccccc2Cl)CC1 | -0.7% | -1.2% | 1.7 | -6% | -7 | 0.1 | 2
CC(=O)Nc1ccc(CN2CCCC(CO)(Cc3ccccc3C)C2)cc1 (stereo not given) | 0.3% | -7.6% | ? | -4% | -14 | -0.8 | -2
COCCN1Cc2cccc(C(=O)NCCCN3CCCC3=O)c2C1=O | 2.8% | / | 1.0 | 14% | 11 | 1.3 | -8
O=C1C(Sc2ccccc2)=C[C@@]2(O)CC[C@@H](O)[C@]1(Sc1ccccc1)[C@H]2O | 4.2% | 1.2% | / | / | / | -1.1 | /
Cn1ccnc1C1CCCCN1Cc1nc(Cc2cccc(C(F)(F)F)c2)no1 (stereo not given) | 0.2% | / | 0.3 | 13% | 30 | 1.7 | 5
CCc1ccc(CNC(=O)c2c(C)oc3ncn(CC(C)C)c(=O)c23)cc1 | 21% | -4.7% | / | / | 11 | 1.4 | /
COc1ccc(Cl)cc1NC(=O)CC(C)c1ccccc1 (stereo not given) | -0.5% | 1.2% | 1.2 | 13% | -28 | 3.6 | -8
CCOC(=O)C1CCCCN1Cc1cccc(OC)c1OC (stereo not given) | -4.4%[38.3 µM] | 0.0% | 4.8 | ? | 29 | 0.1 | 3
O=C(O)c1ccccc1C(=O)Nc1ccc(Br)c(C(F)(F)F)c1 | -0.9% | -0.7% | 6.5 | 19% | 24 | 2.0 | 8
CC(Oc1cccc(Br)c1)C(=O)NNC(=O)c1ccccn1 (stereo not given) | 1.1% | 0.1% | / | / | -5 | 0.2 | /
COc1ccc2cc(C(=O)CS(=O)(=O)c3ccccc3)c(=O)oc2c1 | 3.2% | 4.7% | / | 7% | 22 | 0.0 | 2
O=C(NNS(=O)(=O)c1ccccc1[N+](=O)[O-])c1ccc(O)cc1 | -1.8% | -0.3% | 0.1 | 7% | 8 | -0.9 | 6
Cc1ccccc1Nc1nc(N)nc(CN2CCN(C(=O)c3ccccc3)CC2)n1 | 2.0% | 2.2% | -0.3 | -2% | 8 | -0.4 | 0
CC(/C=N/NC(=O)CNc1n[nH]c(=O)[nH]c1=O)c1ccccc1 (stereo not given) | -0.7% | -0.8% | -0.3 | 11% | -17 | -0.2 | -40
CCCCN1C(=N)N([C@@H](C)CN2CCC[C@H]2CN2C(N)=NC[C@@H]2Cc2ccccc2)C[C@H]1[C@H](C)CC | -0.5% | 0.3% | / | / | -13 | -0.5 | /
COC(=O)c1ccc(/C=C/c2c(-c3ccsc3)sc3ccccc23)cc1 | 11% | -3.7% | 12 | -17% | -4 | -0.8 | 17
COCCn1c(SCC(=O)Nc2ccc(C(N)=O)cc2)nc2c([nH]c3ccccc32)c1=O | -0.8% | -8.9% | / | -21% | -12 | 0.7 | 8
Cc1ccc(NC(=O)C2CCCN(C(=O)c3ccc(Cl)cc3)C2)cc1S(=O)(=O)N1CCOCC1 (stereo not given) | 0.4% | / | 1.5 | 12% | 0 | 0.2 | 0
CN(CCc1ccccc1)C(=O)CCc1nnc(Cc2ccc3c(c2)OCO3)o1 | -1.0% | -2.8% | / | 4% | 20 | -0.6 | 5
COc1ccc(Cl)cc1NC(=O)NNC(=O)c1ccccn1 | 0.3% | -3.6% | / | 12% | 11 | 0.7 | ?
O=C(c1cn(-c2ccccc2)nc1-c1ccc(Cl)s1)N1CCOCC1 | 1.3% | -22% | 1.8 | 6% | 14 | 0.9 | -5
CC1(C)OC(=O)C2(Cc3cc(C(F)(F)F)ccc3N3CCCCC32)C(=O)O1 (stereo not given) | 0.0% | 80% | / | / | / | -0.9 | /
C/C(CC(=O)Nc1cccc(Cl)c1Cl)=N\NC(=O)c1ccccc1N | 2.2% | / | 0.2 | 14% | 2 | 0.0 | 9
O=C(CN(c1ccccc1)S(=O)(=O)c1ccccc1[N+](=O)[O-])N1CCCC1 | 0.5% | / | -0.3 | 15% | -1 | -0.4 | 2
Cc1ccc(N(C)C(=O)C2CCN(S(=O)(=O)c3c(C)noc3/C=C/c3c(C)cc(C)cc3C)CC2)cc1 | 1.1% | -7.8% | / | / | 58 | 0.7 | /
CC(C)[C@H](NC(=O)[C@@H]1Cc2ccccc2CN1C(=O)OC(C)(C)C)C(=O)NCC1CCCO1 (stereo not given in full) | 0.7% | -0.6% | -4.0 | 8% | 3 | 1.6 | -13
Cc1ccc(NC(=O)CSc2nnc(CNC(=O)c3cccs3)o2)cc1 | -0.9% | 3.3% | -2.4 | 26% | -6 | 0.9 | 2
O=C(CCNC(=O)c1ccc(Cl)cc1)Nc1cc(C(F)(F)F)ccc1N1CCOCC1 | 3.5% | -0.3% | / | / | -1 | -0.3 | /
CC(NC(=O)C12CC3CC(CC(C3)C1)C2)c1ccc2c(c1)OCCO2 (stereo not given) | 1.8%[38.3 µM] | 0.8% | -1.9 | 8% | -12 | 1.0 | 0
Cc1cc(NCCN2CCOCC2)n2nc(C)c(-c3ccc(Cl)cc3)c2n1 | 5.9% | -25% | 1.5 | 6% | 27 | 0.5 | -13
CCOC(=O)c1ccccc1NC(=O)CN(c1ccccc1C)S(C)(=O)=O | / | -18% | -1.7 | 0% | -19 | 2.2 | 1
O=C(c1cccc(N2C(=O)C3C4C=CC(C4)C3C2=O)c1)N1CCN(c2ccccc2)CC1 (stereo not given) | -0.2% | / | 1.0 | 6% | 26 | -0.2 | -1
O=C(CCNS(=O)(=O)c1ccccc1)OCC(=O)c1ccc(Br)cc1 | -3.6% | / | / | / | 29 | 2.0 | 27
Cc1cc(NC(=O)CSc2nc3c(C)ccc(C)c3cc2C#N)no1 | 0.9% | / | 8.1 | 10% | -4 | 0.2 | 8
NC(=O)CC(NC(=O)c1ccc(Br)cc1)c1ccc(NCc2ccc(F)c(F)c2)c([N+](=O)[O-])c1 (stereo not given) | 0.5% | -2.1% | 6.7 | 50µM* | 2 | 0.0 | 9
Cc1c(C(=O)NNC(=O)c2ccncc2)oc2ccccc12 | 1.2% | 0.9% | / | / | -11 | -0.8 | -17
O=C(c1ccccc1)N1CCCN(c2nccc(C(F)(F)F)n2)CC1 | 0.4% | / | 0.7 | 14% | -6 | 0.2 | 8
CN1CCN(C2=CC(=O)OC23CCCCC3)CC1 | 1.5% | -0.4% | 3.2 | 14% | -3 | -0.4 | 11
CCN(CC(=O)Nc1ccccc1C(F)(F)F)C(=O)c1ccc(N2C(=O)CCC2=O)cc1 | 0.5% | -1.5% | / | 9% | -17 | 0.5 | 8
CC(=O)Nc1ccc(/C=C/c2nc3ccccc3s2)cc1 | 0.9% | 2.2% | / | / | / | 3.7 | /
O=C(O)C1CCCCC1C(=O)Nc1ccc(S(=O)(=O)N2CCOCC2)cc1 (stereo not given) | -0.8% | / | / | / | -3 | 0.0 | /
Fc1ccc(-c2nc3ccc(Cl)cn3c2Cc2ccccc2C(F)(F)F)cc1 | 3.2% | -12% | / | / | 54 | 2.8 | /
O=C1NC(=S)N/C1=C\C=C\c1ccccc1 | -0.1% | -0.1% | -1.9 | 14% | 15 | 3.1 | 0
CC(C)C(C)NC(=O)CN1C(=O)NC2(CCc3ccccc32)C1=O (stereo not given) | 1.4% | / | 2.0 | 2% | -13 | 0.7 | 8
N#Cc1c2c(c(NCCCN3CCOCC3)n3c1nc1ccccc13)CCC2 | 0.1% | 32µM* | 0.7 | 15% | -4 | -0.5 | 2
Cc1ccc2c(c1)N(CCC(=O)NCc1ccccn1)C(=O)CO2 | -3.1% | -3.3% | 0.1 | 13% | -9 | -0.8 | 15
CN1CC(=O)N(CC(=O)Nc2ccc(N3CCOCC3)cc2)C1=O | -1.2% | -2.3% | / | / | 48 | -1.4 | -25
Cc1cnc2nc(-c3ccccc3)ccc2c1 | 1.4% | -15% | / | / | / | -0.7 | /
Cc1ccc(S(=O)(=O)N2CCN(C(=O)Cn3nc(C(=O)O)c4ccccc4c3=O)CC2)cc1 | 11% | 0.0% | -2.4 | 12% | -4 | -0.9 | 13
COc1ccc(NCN2C(=O)CCC2=O)cc1 | -0.9% | -2.0% | 3.9 | 14% | -8 | -0.8 | -10
COc1cc2nc(CN3CCN(C(C)=O)CC3)[nH]c(=O)c2cc1OC | -1.5% | / | -2.7 | -12% | -6 | 0.3 | -9
CC(C)(C)c1ccc(C(=O)Nc2c3c(nn2C(C)(C)C)CS(=O)(=O)C3)cc1 | 4.7% | 2.3% | / | 6% | 4 | 2.0 | 2
CN(CC(=O)Nc1cccc(F)c1)C(=O)CN1c2cccc3cccc(c23)S1(=O)=O | 0.9% | -20% | / | / | -7 | 3.6 | -18
